# CDC25B-CDK2 inh = human CDC25B-CDK2/CyclinA binding inhibition. P30305+P24941. HTRF CDC25B-CDK2/CyclinA binding, anti-His/anti-Flag; active compounds read high. z-score (test concentration not listed). 0.72% of 94,000 active;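 note: score is relative to mean and SD of negative controls; strong numbers were not always called active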
# HIV TAR-Tat = HIV-1 TAR-Tat binding disruption. 0.6% of 100,000 active. HIV-1 TAR RNA, Tat peptide displacement FRET; active compounds read high. z-score (no concentration beside the values);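 note: score is relative to mean and SD of negative controls; some compounds called inactive have numbers as strong as hits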
# * = called active by the depositor; . = no result given.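 Rule for the calls: active = z-score from 3 up in half or more of its runs; inactive = the rest.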
structure | CDC25B-CDK2 inh | HIV TAR-Tat
Cc1cccc(-c2nc3nc(C)cc(Nc4ccc(N(C)C)cc4)n3n2)c1 | -2.1 | 2.1
COC(=O)c1sc(-c2cccs2)cc1NC(=O)c1ccc(C)cc1 | -1.7 | .
CCCC(=O)N1c2ccccc2NC2=C(C(=O)CCC2)C1c1cccs1 (stereo not drawn) | -1.4 | .
COCCNC(=O)c1cnn2c3c(cnc12)CCCCC3 | . | 1.7
Cc1ccc(CCNc2nc3ccc(C)cc3n3nnnc23)cc1 | . | -1.2
Cc1cc(-c2ccc(S(=O)(=O)N3CCN(c4ccc(Cl)cc4)CC3)s2)n[nH]1 | . | 0.46
CCOc1ccc(-c2nc(COc3ccccc3-c3nnc(-c4ccccc4)o3)c(C)o2)cc1OC | . | -0.11
COC(=O)C1=C(C)Nc2nc3ccccc3n2C1c1cc(F)cc(F)c1 (stereo not drawn) | -2.5 | 2.6
CSc1ncc2c(n1)-c1ccccc1N(Cc1ccc(Cl)cc1)S2(=O)=O | . | 0.92
COc1ccccc1N1CCN(CCCCOc2c(OC)cccc2OC)CC1 | -1.4 | .
CCC(=O)N1c2ccc(S(=O)(=O)CCC(=O)Nc3ccc(F)cc3)cc2CC1C (stereo not drawn) | . | 0.18
COc1ccc(C2C(C(=O)OC(C)C)=C(C)NC3=C2C(=O)CC(c2ccccc2OC)C3)cc1OC (stereo not drawn) | -0.36 | -0.03
c1ccc(Nc2ncc3c(n2)-c2cn(-c4ccccc4)nc2NCC3)cc1 | . | 1.5
CC(=O)N1CCN(S(=O)(=O)c2ccc(N3CCCCS3(=O)=O)cc2)CC1 | . | -0.23
O=C(Cn1nc(-c2ccccc2)c2c(c1=O)CCCC2)c1ccccc1 | -0.11 | 2.7

# Continuation.
structure | CDC25B-CDK2 inh | HIV TAR-Tat
Cc1ccc(S(=O)(=O)NC(=O)OCCn2ncc3ccccc3c2=O)cc1 | -1.6 | .
COCCCN(Cc1ccco1)C(=O)CSc1nc2ncccc2[nH]1 | 0.03 | 0.64
COc1ccccc1Nc1ncnc2c1cnn2-c1cccc(Cl)c1 | . | 1.6
COCc1nc(-c2ccc(-c3ccc(OC)cc3)nc2OC)no1 | 1.5 | 1.1
CN1C(=O)Cc2cc(S(=O)(=O)NCCc3ccc(Cl)cc3)ccc21 | . | 1.1
COCCOC(=O)c1nccnc1C(=O)Nc1ccc(S(=O)(=O)N2CCOCC2)cc1 | -0.04 | .
O=c1[nH]nc(COc2ccccc2)c2nnn(Cc3ccccc3)c12 | -0.58 | 0.22
COc1ccc(-c2cn(-c3ccccc3)c3[n+]2CCS3)cc1 | -2.6 | 1.4
C=CCNC(=O)c1c(C)c(C(=O)OCC)n(CC)c1C | -0.62 | .
Cc1ccc(S(=O)(=O)c2nnn3c2nc(N2CCOCC2)c2ccccc23)cc1C | 0.78 | 0.54
Cc1ccc(N(Cc2cc3ccccc3[nH]c2=O)S(C)(=O)=O)cc1 | -2.6 | 0.2
CC(C)=CC[C@@H](OC(=O)C=C(C)C)C1=CC(=O)c2c(O)ccc(O)c2C1=O | . | 23*
O=C(c1cccs1)n1nc(-c2cccnc2)nc1NCc1ccco1 | -0.7 | 1.4
COc1cccc(C2NC(C(=O)O)CS2)c1OCc1ccccc1 (stereo not drawn) | 0.1 | .
Cc1noc2ncnc(N3CCCCC3)c12 | . | -0.98

# Going on with the list.
structure | CDC25B-CDK2 inh | HIV TAR-Tat
Cc1nnc(SCc2cc(=O)n(-c3nc4ccccc4s3)[nH]2)s1 | . | 2.2
Cc1cc(C)cc(NC(=O)CCc2c(C)nc3c4cccnc4nn3c2C)c1 | -1.4 | 1.8
CC(C)(C)NC(=O)C1CCN(S(=O)(=O)c2cccnc2)CC1 | . | 1.4
COc1ccc(NS(=O)(=O)c2cc3c4c(c2)CCN4C(=O)CC3)cc1 | . | 1.1
CC(CN(C)Cc1ccccc1)OC(=O)C1COc2ccccc2O1 (stereo not drawn) | -0.99 | -0.45
CCOc1ccc2nc(Nc3ncc4c(n3)CC(C)(C)CC4=O)nc(C)c2c1 | -0.89 | 0.58
O=C1CSC(=S)N1CC1CC1 | -1.2 | .
NC(=O)CCCn1nnc2cc(S(=O)(=O)N3CCCC3)ccc21 | . | 0.57
COc1ccc(-c2noc(N3CCCC3)n2)cc1OC | . | 0.87
CCc1ccc(-c2cc(C)no2)cc1S(=O)(=O)NC1CC1 | . | 0.19
CN(C)CCCN1C(=O)C(=O)/C(=C(/O)c2ccccc2)C1c1ccco1 (stereo not drawn) | -1.4 | 0.5
O=C1C2CCCN2C(c2cccs2)N1c1ccc(F)cc1 (stereo not drawn) | 1.1 | -1.2
CC1Sc2ccc(S(=O)(=O)N3CCCCC3C)cc2NC1=O (stereo not drawn) | . | 2.5
COc1ccc(OC)c(C2NC(c3cc(OC)ccc3OC)C(C)C(C)(O)C2C)c1 (stereo not drawn) | -1.1 | 0.92
C=CCNc1ncnc2c1sc1nc(C(C)C)c3c(c12)CC(C)(C)OC3 | 2.1 | 0.36

# Additional results follow:
structure | CDC25B-CDK2 inh | HIV TAR-Tat
CSc1ccccc1N1CCN(CCCCCC(=O)NC2CCCc3ccccc32)CC1 (stereo not drawn) | -1.1 | .
O=c1c2nccnc2nc(SCc2cccc(Cl)c2)n1Cc1ccc(F)cc1 | . | -0.57
Cc1nn(-c2nncc(-c3ccc(Cl)cc3)n2)c2c1C(c1ccccc1)CC(=O)N2 (stereo not drawn) | -1.8 | 1.9
COCCN1C(=O)C2C(C(=O)Nc3cccc(SC)c3)C3C=CC2(O3)C1C(=O)NC1CCCCC1 (stereo not drawn) | -0.16 | -1.6
Cc1nn(-c2nc3ccccc3[nH]2)c2c1C(c1cc(F)ccc1F)CC(=O)N2 (stereo not drawn) | . | 2.5
COCCn1c(SCC(=O)Nc2nnc(C)s2)nnc1-c1c[nH]c2ccccc12 | -1.5 | .
CC(=O)N1c2ccc(S(=O)(=O)N3CCCC3)cc2CC1C(=O)NCCCN(C)C1CCCCC1 (stereo not drawn) | . | 0.67
O=C1NC2(CCCCCC2)N=C1c1ccc(F)cc1 | 0.3 | .
O=C(C1CCN(c2ccc(-c3cccs3)nn2)CC1)N1CCc2ccccc21 | . | -0.12
CN1C(=O)C(C)(C)c2cc(S(=O)(=O)N3CCC(N(C)C4CCCCC4)CC3)ccc21 | . | 1
OCCNc1ncnc2onc(-c3cccc(Cl)c3)c12 | . | 0.52
COc1ccc(C2N(C)C(=O)c3ccccc3S2(=O)=O)cc1 (stereo not drawn) | -1.6 | .
COc1ccc(OC)c(C2CC(=O)N3CN(Cc4ccco4)CSC3=C2C#N)c1 (stereo not drawn) | -3.6 | .
CCOc1ccc(N2CCc3c2nc2ccc(Br)cc2c3N)cc1 | -0.04 | -5.5
CCc1cc2c(cc3n2CC(C)(C(=O)NC2CCC(C)CC2)N(CCN(CC)CC)C3=O)s1 (stereo not drawn) | -0.89 | 1.5

# Further records.
structure | CDC25B-CDK2 inh | HIV TAR-Tat
Cc1ccc(C(=O)Cn2c3ccccc3n3nc(-c4ccco4)nc23)cc1 | -5.5 | 3.2
Fc1ccccc1-n1ncc2c1ncn1nc(-c3ccccc3Cl)nc21 | -1 | -0.18
N=c1sc2ccccc2n1-c1ccccc1 | -0.77 | .
O=S(=O)(NCCc1ccc(Cl)cc1)c1cccc2nsnc12 | -1.7 | .
COCCCN1C(=O)c2[nH]nc(-c3ccccc3O)c2C1c1cccc(OC)c1 (stereo not drawn) | 0.31 | 0.68
COc1ccc(-c2noc(NCCN3CCN(C)CC3)n2)cc1OC | . | 0.43
CCN1C(=O)C(NC(C)=O)c2cc(Cl)ccc21 (stereo not drawn) | -1.6 | 0.08
COc1nc(C)ccc1-c1noc(-c2ccncc2)n1 | -0.9 | 0.68
CCCSc1nc2c(c(=O)[nH]1)C(c1sccc1C)C(C(=O)OC)=C(C)N2 (stereo not drawn) | -1 | 1.6
Cc1cccc2c1Oc1nc(-c3ccc(Br)cc3)[nH]c(=O)c1C2 | -1.2 | 2
O=C(c1cccc(Cl)c1)N1CCN(c2cc(=O)n3nc(-c4ccccc4)sc3n2)CC1 | . | -1
O=C(NC1CCCC1)c1ccc(CS(=O)Cc2ccc(Cl)cc2)o1 (stereo not drawn) | . | 1.5
CCOc1ccc(NS(=O)(=O)c2cc3c(cc2Cl)NC(=O)CO3)cc1 | . | -1.6
Cc1nn(C(C)C(=O)NC2CCCC2)c(=O)c2nn(-c3ccccc3)c(C)c12 (stereo not drawn) | . | 6.2
Cc1nc2nc(C)c(NS(=O)(=O)c3ccc(C(C)(C)C)cc3)c(=O)n2[nH]1 | -1.6 | 2.5

# (further entries)
structure | CDC25B-CDK2 inh | HIV TAR-Tat
Cc1ccc2[nH]cc(-c3nnnn3-c3ccc(Cl)cc3)c2c1 | -0.37 | .
O=C(Nc1ccc(S(=O)(=O)N2CCOCC2)cc1)c1cc(=O)c2ccccc2o1 | -1.2 | -0.33
CC1(C)Cc2c(c(N3CCNCC3)[nH]c(=S)c2C#N)CO1 | 1.9 | .
CC(=O)Nc1ccc(NC(=O)CN(C)S(=O)(=O)c2ccc3c(c2)CCC(=O)N3)cc1 | 0.01 | .
Cc1cc2c(cc3c(SCc4c(F)cccc4Cl)nnc(C)n32)o1 | . | 0.1
CCCCC(=O)Nc1ccc(OCc2cc(=O)n3ccsc3n2)cc1 | -1.1 | -0.21
CCC(N)Cn1nnn(-c2ccccc2)c1=O (stereo not drawn) | -1 | -0.04
Oc1sc(-c2ccccc2)cc1/C=N/c1nc(-c2ccccc2)cs1 | -0.97 | 1
Clc1ccc(/C=N/Nc2ccc(-c3cnco3)cc2)cc1 | -0.62 | .
Cc1nnc2sc(SCC(=O)c3ccc(Cl)cc3)nn2c1=O | . | 0.15
COC(=O)C1=C(C)NC2=C(C(=O)CC(c3ccccc3OC)C2)C1c1ccc(C(=O)OC)cc1 (stereo not drawn) | -1 | 0.07
COc1ccc(-c2cccc(NS(=O)(=O)c3cccc(Cl)c3)c2)nn1 | . | 0.33
CCOC(=O)N1CCN(S(=O)(=O)c2c(C)nc3scc(C)n3c2=O)CC1 | -0.46 | 1.1
CC(C)Cn1c(=O)c2c(nc3n2CCCN3C2CCCCC2)n(C)c1=O | -2 | .
CCc1ccc(N2CN(CC)CNC2=S)cc1 | -1.5 | .

# Retrieved by structure from the list above:
structure | CDC25B-CDK2 inh | HIV TAR-Tat
COc1ccc(OC)c(C2CC(=O)N3CN(Cc4ccco4)CSC3=C2C#N)c1 (stereo not drawn) | -3.6 | .
COc1ccc(OC)c(C2NC(c3cc(OC)ccc3OC)C(C)C(C)(O)C2C)c1 (stereo not drawn) | -1.1 | 0.92
Cc1ccc(CCNc2nc3ccc(C)cc3n3nnnc23)cc1 | . | -1.2

# Following part.
structure | CDC25B-CDK2 inh | HIV TAR-Tat
Cc1nn(C)c2sc(C(=O)NCCc3ccccn3)cc12 | -0.08 | .
CCc1nn2c(=O)c(S(=O)(=O)Nc3ccccc3)c(C)nc2s1 | -1 | 0.5
Cc1cccc(OCc2nn3c(C)nnc3s2)c1 | -3 | -0.8
Oc1ccccc1O | -2.6 | .
Cc1onc(-c2ccccc2Cl)c1C(=O)Nc1c2c(nn1-c1ccc(F)cc1)CSC2 | -1.7 | .
Cc1onc(-c2c(Cl)cccc2Cl)c1NC(=O)N(C)c1c2c(nn1C)CCCC2 | 0.08 | .
CCOC(=O)c1c(NC(=O)c2nn(-c3ccc(F)cc3)ccc2=O)sc2c1CCC2 | -1.2 | 0.63
CC(C)NC(=O)c1nn2c(c1Br)NC(c1cccs1)CC2C(F)(F)F (stereo not drawn) | -0.41 | 2
CC(C)c1cc(-c2nc(-c3cccc(Cl)c3)no2)n[nH]1 | . | -0.44
Cc1cc(C)c(S(=O)(=O)Nc2ccc3c(c2)sc(=O)n3C)c(C)c1 | . | 1.2
Cc1cccc(-c2noc(C3CCCN(S(=O)(=O)c4ccc(Br)cc4)C3)n2)c1 (stereo not drawn) | . | 1.2
O=C(O)c1ccc(N2Cc3ccncc3C2=O)cc1 | -1.3 | -0.05
COc1ccc(Cl)cc1N1C(=O)C2CCCN2C1c1ccc(F)cc1 (stereo not drawn) | -1.4 | 2.1
O=C(Nc1nc2c(F)cc(F)cc2s1)c1ccc2c(c1)OCCO2 | . | 1.1
COC(=O)c1cc(S(=O)(=O)Nc2ccsc2C(=O)OC)oc1C | -1.2 | .

# Later entries:
structure | CDC25B-CDK2 inh | HIV TAR-Tat
CCOC(=O)COc1nc(-c2cccs2)cc(C(F)(F)F)n1 | 0.3 | 0.21
O=C(CN1CCOCC1)Nc1cc(C(F)(F)F)ccc1Cl | -0.76 | .
CSc1nc(N)nc(-c2cc(Cl)cc(Cl)c2)n1 | 0.41 | .
COCCOc1ccc(NC(=O)c2ccc(Cl)cc2)cc1 | -1.3 | .
CCC1CCCCN1S(=O)(=O)c1ccc2[nH]c(=O)ccc2c1 (stereo not drawn) | . | 6.5*
COc1ccc(S(=O)(=O)NCC(c2ccco2)N2CCN(c3ccccc3F)CC2)cc1OC (stereo not drawn) | . | 1.2
CCOC(=O)N1CCC(NC(=O)c2ccc3c(c2)N=C(C)c2c(C)ccc(C)c2S3)CC1 | -2.7 | -1
O=C(Cn1cc(C(=O)c2ccc(F)cc2)c(=O)c2cc(F)ccc21)Nc1ccc2c(c1)OCO2 | 3.2 | 1.9
COc1ccc2nc3oc(C(=O)Nc4cc(Cl)c(OC)cc4OC)cc3cc2c1 | -1.1 | .
CC(C)NC(=O)c1ccc2c(=O)[nH]c3c(C(=O)NC(C)C)sc(=S)n3c2c1 | . | 3.4
COc1cccc2c1Oc1ncccc1NC2 | 8.6* | 0.72
O=C(Nc1ccc2oc(-c3ccncc3)nc2c1)c1cc2ccccn2n1 | -1.4 | .
COc1cc(NS(=O)(=O)c2ccc3c(c2)NC(=O)CCS3)cc(OC)c1 | . | -0.12

# Three consecutive entries from above:
structure | CDC25B-CDK2 inh | HIV TAR-Tat
COc1cccc2c1Oc1ncccc1NC2 | 8.6* | 0.72
O=C(Nc1ccc2oc(-c3ccncc3)nc2c1)c1cc2ccccn2n1 | -1.4 | .
COc1cc(NS(=O)(=O)c2ccc3c(c2)NC(=O)CCS3)cc(OC)c1 | . | -0.12

# Compound activity (PubChem)
